Compound activity deposited in PubChem BioAssay by several laboratories.
ugtP null kill: growth inhibition of S. aureus ugtP deletion strain; S. aureus RN4220 ugtP deletion, OD600 growth, 16 h; some inactives read as strong as hits; growth inhibition, % (no concentration beside the values); AID 1259309; 0.54% of 330,000 active;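 active = z-score under -3 and OD600 up to 0.15 on both plates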;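 also: plate controls were untreated wells for no effect and antibiotic for full effect; wells of about 80 µL received 100 nL stock; the first replicate is given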
PrP UTR inh: inhibition of PrP 5' UTR reporter expression. cell-based PrP 5' UTR mRNA reporter, plate reader. inhibition, % (test concentration not listed). 0.35% of 340,000 active;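 active = every replicate at 50% or more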;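 also: 0 = median of the neutral control wells; tested in H4 reporter cells; numbers are from one replicate; inactives centre near -14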
BJeLR lethal: BJeLR cell viability loss | BJeLR (HRASV12) viability, CellTiter-Glo ATP luminescence, 48 h; reference of the scale not given here | inhibition, % (no concentration beside the values) | 0.17% of 300,000 active | AID 1554;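 active = replicate mean above 50%; inconclusive = above 50% but judged a plate artefact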;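 also: 50 nL library stock added to about 25 µL; numbers are from one replicate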
Mtb hypoxia inh: Mtb hypoxia fluorescent reporter inhibition; M. tuberculosis hypoxia-regulated fluorescent reporter, fluorescence; fluorescence inhibition, % (concentration not given with the values); 0.1% of 300,000 active;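 active = 35 to 45% if threefold the growth effect, above 45% if 1.5-fold the growth effect; inactive = the rest, general growth blockers included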;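 also: wells of about 50 µL received 100 nL stock; 0% = vehicle wells and 100% = reference inhibitor wells; whole bacteria with a GFP reporter of the hypoxia response; strong numbers were not always called active; many hits fall short of the cut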
Autofluor counter: counter-screen for toxin protease inhibitors: compound fluorescence | compound autofluorescence counterscreen, microsphere flow cytometry; hits give high values | fluorescence intensity (test concentration not listed) | 3.1% of 360,000 active | AID 624483;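 active = at least 3 SD above the mean of all compounds, about 16000 in these data; inconclusive = too few beads counted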;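 also: 100 nL of 1 mM stock went into each well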
Sa RN4220 lethal: kills Staphylococcus aureus RN4220; S. aureus RN4220 growth, OD600, 16 h; inhibition, % (concentration not given with the values); 0.33% of 330,000 active;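 active = z-score of -3 or lower and OD600 up to 0.18 on both plates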;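 also: plate controls were untreated cells for no effect and reference antibiotic for full effect; stock transfer was 100 nL into about 80 µL; one replicate is shown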
Mtb hypoxia inh growth: also measured in Mtb hypoxia inh; calls as there; growth inhibition, %; measured here: M. tuberculosis growth (absorbance);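 0% = vehicle and 100% = reference antibiotic; read after six days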
Numbers without * were called inactive; ? = inconclusive; nt = not tested or not shown. Random draw from the library, and some 4% of all compounds hit somewhere here.

SMILES	ugtP null kill	PrP UTR inh	BJeLR lethal	Mtb hypoxia inh	Mtb hypoxia inh growth	Autofluor counter	Sa RN4220 lethal
CNC(=S)N(C)c1ccccc1	7.0	-11.8	3.2	-3.9	-5.3	2773	6.7
O=C(Cc1ccc(Cl)cc1)Nc1ccc(NC(=O)c2ccccc2)cc1	-8.8	-11.5	2.7	4.2	2.5	2035	8.3
CCOc1ccc(S(=O)(=O)NCCC(=O)OCC(=O)N2CC(=O)Nc3ccccc32)cc1	-0.2	-23.2	3.3	10.7	5.4	4240	0.4
O=C(COc1ccccc1)Nc1nnc(S(=O)(=O)N2CCCCCC2)s1	12.0	-1.3	-1.6	7.0	9.4	4269	3.7
COc1ccccc1C1CCN(c2ccc(CO)cc2[N+](=O)[O-])CC1	18.5	-22.9	-1.4	14.4	3.5	4382	8.2
NC1=NS(=O)(=O)NC1c1ccc(F)cc1 (stereo unspecified)	-5.5	-31.5	1.1	5.6	7.2	2250	0.9
CC1CCN(C(=O)c2ccc3c(c2)NC(=O)/C(=C/c2ccccc2)S3)CC1	-20.4	-9.3	2.5	-18.5	3.8	5620	-5.5
Cn1c(SCC(=O)NCCc2ccccc2)ncc(C(=O)Nc2ccccc2)c1=O	5.1	-19.7	-1.9	-3.2	-1.5	7019	-0.4
Cc1ccc(S(=O)(=O)N2CCN(C(=O)c3ccc(N4CCCC4)c([N+](=O)[O-])c3)CC2)cc1	0.3	1.2	7.4	1.2	-6.8	?	-1.6
C=CCN(C(=O)CSc1nc2[nH]ncc2c(=O)n1-c1ccccc1OC)c1ccccc1	14.3	nt	nt	2.8	-0.2	11345	9.7
COc1ccc(NC(=O)Nc2ccccc2SC)c(OC)c1	4.4	-9.7	8.4	5.9	5.0	4687	7.7
CSc1ccccc1OCc1cc(C(=O)N(C)CC2COCCO2)no1 (stereo unspecified)	4.5	-31.1	-6.2	-0.4	0.4	5280	1.7
Cc1ccc(-c2nnc(-c3ccc4c(c3)OCO4)o2)cc1	-5.4	-41.4	nt	-0.7	-5.1	2652	6.2
CSc1ccc(CN2C(=O)NC3(CCCCCC3)C2=O)cc1	4.7	8.7	7.7	5.5	10.3	3164	1.3
O=C1NC(Cc2ccccc2)C(c2ccco2)O1 (stereo unspecified)	5.1	nt	nt	3.0	12.5	nt	4.7
Nc1ccc(S(=O)(=O)Nc2ccc(S(N)(=O)=O)cc2)cc1	9.0	-7.4	-1.3	21.3	17.5	9779	-0.6
CCOC(=O)c1[nH]cnc1C(=O)N1CCN(C(=O)OC(C)(C)C)CC1	4.8	-1.4	nt	-3.1	5.8	2907	6.7
CN(C)S(=O)(=O)c1cc(NC(=O)COC(=O)C2CSC3(C)CCC(=O)N23)ccc1Cl (stereo unspecified)	7.9	-22.9	-4.5	-4.4	6.1	2498	4.5
Cc1ccc(CC(NC(=O)c2ccc(C)cc2)C(=O)O)cc1 (stereo unspecified)	2.9	-19.7	nt	0.5	3.4	2930	3.2
O=C(CSc1n[nH]c(=O)[nH]c1=O)Nc1c(Cl)cc(Cl)cc1Cl	2.1	-8.9	nt	5.2	7.5	3784	0.9
C=C/C(C)=C/C[C@H]1C(=C)CCC2[C@](C)(C(=O)O)CCC[C@@]21C (stereo partly specified)	10.9	-11.4	nt	nt	nt	3986	24.9
CCOc1ccc(OCCCC(=O)NNC(=O)c2ccncc2)cc1	1.2	-2.4	-1.0	nt	nt	nt	2.6
Cc1c(S(=O)(=O)N2CCC(C)CC2)c(=O)n(C)c(=O)n1C	-3.1	0.1	-4.4	10.6	8.3	6092	-1.7
COCCN(C(=S)Nc1ccc(C)c(C)c1)C(C)c1ccco1 (stereo unspecified)	6.7	-7.0	11.3	4.7	-0.7	4369	0.1
COc1cc(OC)nc(Oc2ccccc2/C=N/O)n1	nt	-10.5	-5.1	nt	nt	5918	nt
CCc1noc(C)c1C(=O)Nc1nc2c(F)cc(F)cc2s1	55.1	-58.4	nt	11.0	3.0	3068	74.3
CC(=O)N1CCc2cc(S(=O)(=O)CCC(=O)Nc3c(C)n(C)n(-c4ccccc4)c3=O)ccc21	2.9	-20.4	-5.4	nt	nt	4133	0.5
COc1cc(C=O)c(-c2c(C=O)cc(OC)c3c2OCO3)c2c1OCO2	4.2	-34.8	-11.3	15.0	5.1	3816	3.0
CC(C)c1ccc(/C=N\NC(=O)c2ccc(Cn3cccn3)o2)cc1	nt	-23.0	-16.8	nt	nt	1955	nt
O=C(N/N=C/c1ccc2c(c1)OCO2)C(O)c1ccccc1 (stereo unspecified)	nt	-34.5	-14.8	nt	nt	2504	nt

Reprinted at random: 3 records from the list.
SMILES	ugtP null kill	PrP UTR inh	BJeLR lethal	Mtb hypoxia inh	Mtb hypoxia inh growth	Autofluor counter	Sa RN4220 lethal
CC(=O)N1CCc2cc(S(=O)(=O)CCC(=O)Nc3c(C)n(C)n(-c4ccccc4)c3=O)ccc21	2.9	-20.4	-5.4	nt	nt	4133	0.5
Nc1ccc(S(=O)(=O)Nc2ccc(S(N)(=O)=O)cc2)cc1	9.0	-7.4	-1.3	21.3	17.5	9779	-0.6
COCCN(C(=S)Nc1ccc(C)c(C)c1)C(C)c1ccco1 (stereo unspecified)	6.7	-7.0	11.3	4.7	-0.7	4369	0.1

(cont.)
SMILES	ugtP null kill	PrP UTR inh	BJeLR lethal	Mtb hypoxia inh	Mtb hypoxia inh growth	Autofluor counter	Sa RN4220 lethal
Cc1ccc2nc3ccc(N4CCCCCCC4)nn3c(=O)c2c1	-20.8	-52.6	3.7	2.4	6.1	8649	1.8
CN1CCCC(OC(=O)CCCC(=O)OC2CCCN(C)C2)C1 (stereo unspecified)	-6.7	-3.3	-0.8	6.9	7.0	3415	3.1
O=C(O)CC1c2ccccc2CCN1S(=O)(=O)c1ccc(F)cc1 (stereo unspecified)	0.6	-5.5	-2.9	17.0	-2.3	5376	2.8
Cc1ccc(C)c2c1N(Cc1ccccc1)C(=O)C21OCCO1	6.1	-48.0	-3.9	7.9	1.5	3064	1.0
CCCNC(=O)NC(=O)CN1C(=O)NC(C)(c2ccc(C)cc2)C1=O (stereo unspecified)	-11.2	-3.8	-2.3	10.1	0.8	11425	9.3
COC(=O)c1c(C)[nH]c(/C=N/Nc2ccccc2)c1C	nt	-54.1	-3.6	nt	nt	3126	nt
CCOc1ccccc1NC(=O)CSc1cn[nH]n1	1.2	-18.3	-7.9	8.0	0.5	6413	3.6
COc1ccccc1S(=O)(=O)Cc1ccc(C(=O)NCc2cccs2)o1	1.1	-21.0	3.5	6.2	-1.8	10104	3.7
CCCCc1c(O)nc(SCCN(C)C)n(-c2ccccc2)c1=O	3.1	-15.7	-1.7	nt	nt	2994	-1.2
CC(C)(C)c1nnc(NC(=O)c2cc(-c3ccccc3)nc3ccccc23)s1	-8.9	-16.1	-5.2	-2.6	-0.9	4509	-4.1
O=C(NN=Cc1ccc(OC(=O)c2cccc(Br)c2)cc1)c1cccnc1	-1.7	nt	nt	-6.9	-7.3	nt	4.7
CC(O)c1n(C)c(Cl)c[n+]1C (stereo unspecified)	0.3	-17.2	4.9	1.3	6.0	3660	0.9
CCOC(=O)c1cc(NC(=O)C2CCCO2)cc(C(=O)OCC)c1 (stereo unspecified)	5.3	-21.1	-3.3	8.2	7.9	16398*	2.8
CN(CCOc1ccccc1)C(=S)Nc1ccc(OC(F)F)cc1	5.1	-4.6	-0.1	11.4	10.6	3579	-0.8
C#Cc1ccc([C@@H]2C=C(C(=O)OCC=C)O[C@H](OCC)[C@H]2CCCO)cc1	nt	0.2	6.1	nt	nt	3778	nt
COc1ccc(S(=O)(=O)N2CCOCC2)cc1NC(=O)Cc1ccccc1Cl	-0.4	-11.6	-17.2	1.5	4.9	4554	7.2
Cc1cccc(OCC(=O)N2CCN(C(=O)c3ccco3)CC2)c1	-0.9	-20.8	3.4	2.0	8.3	2678	2.7
CCn1cc(/C=N/NC(=O)c2cc3c(ccc4ccccc43)o2)c2ccccc21	nt	-28.8	-13.5	nt	nt	2943	nt
Cc1ccc(S(=O)(=O)NC(C)(C)CN2CCC(Cc3ccccc3)CC2)cc1	15.1	14.7	15.9	-4.2	0.6	5851	2.6
O=C(N=Nc1c(O)[nH]c(=O)[nH]c1=O)C1COc2ccccc2O1 (stereo unspecified)	7.1	-34.5	-6.5	5.2	-0.9	2597	7.0
COc1ccccc1C1CCN(c2ccc([N+](=O)[O-])c(OC)c2)CC1	-1.8	-52.2	8.5	5.8	8.5	4715	1.4
COc1ccccc1N/C=C(\C#N)c1nc2ccccc2[nH]1	nt	-20.1	-6.7	nt	nt	2776	nt
Cc1csc(SCC(=O)Nc2cc(S(=O)(=O)N3CCOCC3)ccc2N2CCOCC2)n1	5.9	nt	-9.4	6.5	2.1	4447	3.0
CCC(=O)N1c2ccc(S(=O)(=O)N3CCCCC3)cc2CC1C (stereo unspecified)	2.1	-10.0	-10.5	3.6	6.2	5773	1.5
Cc1ccc2ncnc(Nc3ccccc3)c2c1	-2.3	-4.7	4.4	-3.2	8.5	4642	2.0
COc1ccc(N(CC(=O)N2CCc3ccccc3C2)S(=O)(=O)c2ccccc2)cc1	2.7	-23.7	-4.5	7.4	1.3	4826	6.3
Cc1cc(C)n2nc(C(=O)NN=Cc3ccc(O)cc3)nc2n1	-2.7	nt	nt	2.9	2.2	nt	4.1
CCc1cc2c(=O)n(N)c(CCC(=O)O)nc2s1	nt	-14.7	-8.5	nt	nt	2935	nt
COc1ccc(-n2c(C)nc3c(cnn3-c3ccccc3)c2=O)cc1	0.1	-9.8	15.8	5.0	6.4	11150	-0.4
CC1CCCN(CCCNC(=O)C2CCN(S(=O)(=O)N3CCC4(CC3)OCCO4)CC2)C1 (stereo unspecified)	8.1	-4.0	-1.3	12.6	2.4	5894	1.0
COc1cc(CC2C(=O)OCC2C(=O)c2ccc3c(c2)OCO3)cc(OC)c1OC (stereo unspecified)	2.7	-11.8	nt	17.5	7.0	3893	5.2
CCN(CC)C(=O)/C(=C\c1ccc(Br)cc1)NC(=O)c1ccccc1OC	-1.6	-10.8	-1.6	9.2	1.3	12812	11.3
COc1ccc(OC)c(C(=O)C(=O)c2cc(OC)ccc2OC)c1	0.2	-7.2	nt	10.5	7.5	3825	3.1
CC(=NC1CCN(Cc2ccccc2)CC1)c1c(O)[nH]c(=O)[nH]c1=O	-9.9	-27.0	6.1	-1.1	7.3	22796*	7.3
CN(C)C(=O)/C(=C/c1cn(-c2ccccc2)nc1-c1cccc([N+](=O)[O-])c1)NC(=O)c1ccccc1	nt	-16.8	-0.5	nt	nt	6602	nt
Cc1c(C(=O)NC(C)C2CC3CCC2C3)cccc1[N+](=O)[O-] (stereo unspecified)	1.7	-9.3	-13.0	2.9	5.1	3978	6.2
O=C(NCc1cccs1)c1cccc(S(=O)(=O)N2CCCCC2)c1	2.9	-14.1	-6.1	8.2	4.8	9346	1.6
COc1ccc(N/N=C(/C(N)=O)C2=NC(C)(C)Cc3ccccc32)cc1	nt	-2.5	-5.5	nt	nt	1941	nt
Cn1c(SCC(=O)c2ccccc2F)nnc1C1CC1	-3.7	-13.4	-2.8	2.8	10.5	4427	-2.6
COc1cc(CNc2ncnc3c2[nH]c2ccc(C)cc23)cc(OC)c1	-15.5	-39.8	0.3	14.4	0.2	3835	20.0
Nn1c(SCC(=O)Nc2ccc3c(c2)OCO3)nnc1C(F)(F)F	7.0	-7.9	1.8	7.5	0.5	4058	7.7
CCC1=NC(c2ccc(OC)cc2OC)N(O)C1(C)C (stereo unspecified)	-4.5	-10.6	8.4	-8.5	6.8	11958	-2.6
O=C1OC(c2ccccc2)(c2ccccc2)c2ccccc21	33.4	6.1	nt	nt	nt	2967	10.2
COC(=O)C1=C(c2cc3ccccc3s2)C[C@@H]2CC[C@H]1N2C(=O)NCC1CC1	nt	-22.5	-13.1	nt	nt	3060	nt
NC(=O)c1cc(-c2ccncc2)nc2ccc(Cl)cc12	2.4	-6.9	nt	2.6	-14.2	4510	4.3
COc1ccc(OC)c(NC(=O)Nc2nnc(N3CCC(C)CC3)s2)c1	-10.5	-13.4	-1.3	6.1	4.7	5433	8.3

Record cards, as listed above. Order of screens: ugtP null kill	PrP UTR inh	BJeLR lethal	Mtb hypoxia inh	Mtb hypoxia inh growth	Autofluor counter	Sa RN4220 lethal
COc1cc(CNc2ncnc3c2[nH]c2ccc(C)cc23)cc(OC)c1 as listed: -15.5	-39.8	0.3	14.4	0.2	3835	20.0
COc1ccc(OC)c(C(=O)C(=O)c2cc(OC)ccc2OC)c1 as listed: 0.2	-7.2	nt	10.5	7.5	3825	3.1
